motility = Vibrio cholerae motility inhibitors, OD read-out (AID 588778). Vibrio cholerae motility, OD read-out; higher % means a stronger effect; test concentration not given here; primary cut-off and reference of the scale not given here; strong numbers were not always called active. 10,000 tested, under 10 active. inhibition, %; hits with a dose series show IC50 in µg/mL; in the data active = confirmed in a dose series; inconclusive = primary hit not retested
motility viability = further read-out of motility, marked with its call; inhibition, %; measured here: bacterial viability at 10 ug/mL;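 higher means fewer living bacteria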
Numbers without * were called inactive; u = inconclusive; x = not tested or not shown. Some of the compounds tested, so the mix of outcomes need not match the whole.

[1] O=C(Cc1ccccc1Cl)NCc1ccccn1
[2] O=C(COc1ccc(Cl)cc1Cl)Nc1nncs1
[3] COc1ccc(-c2nn(CC(=O)O)cc2C=O)cc1
[4] O=C1CCC(=O)N1OCC(=O)N(c1ccccc1)c1ccccc1
[5] Cc1cccc(-c2nn3c(Cc4ccccc4)nnc3s2)c1
[6] C=CCNC(=O)CSc1nc(N)cc(=O)[nH]1
screen / no.	1	2	3	4	5	6
motility	13.8%	13.7%	4.0%	11.7%	-10.0%	17.0%
motility viability	11.6	-3.9	3.6	-5.5	-7.1	33.5

[7] O=C(CN1CCCCC1)Nc1ccc([N+](=O)[O-])cc1Br
[8] O=C(c1ccc(NC(=S)Nc2ccc(Br)cc2Cl)cc1)N1CCCC1
[9] CSc1ccccc1NC(=S)NCc1ccco1
[10] C=CCNC(=O)c1ccccc1C(=O)Nc1cccc2ccccc12
[11] CC1CN(C2CCN(Cc3ccccn3)CC2)CC(C)O1 (centres undefined)
[12] CCSc1ccccc1C(=O)N1CCN(Cc2ccc3c(c2)OCO3)CC1
screen / no.	7	8	9	10	11	12
motility	4.8%	12.5%	-0.4%	-11.4%	-12.3%	-1.0%
motility viability	1.0	-2.5	2.2	-1.5	-2.0	-4.7

[13] FC(F)(F)c1cccc(-n2nnc(-c3ccccc3)n2)c1
[14] CC(=O)c1cc2c(cc1NC(=O)C(F)(F)Cl)OCO2
[15] COC(=O)C1Cc2c([nH]c3ccccc23)CN1 (centres undefined)
[16] CC(=O)Nc1ccc(N2C(C)=CC(C(F)(F)F)(C(F)(F)F)C(C#N)=C2N)cc1
[17] O=Cc1ccc(-c2ccc(Br)cc2)o1
[18] Nc1cc(=O)[nH]c(SCc2nc3ccccc3n2Cc2ccccc2)n1
screen / no.	13	14	15	16	17	18
motility	19.7%	-2.4%	8.7%	21.9%	11.3%	-21.4%
motility viability	-1.1	-5.1	2.4	8.2	2.9	-6.7

[19] CCOC(=O)C(=O)Nc1ccc(F)c(F)c1
[20] Cc1cc(C(=O)O)sc1-c1ccccc1
[21] CCOc1ccc2c(c1)C(C)=CC(C)(C)N2C(=O)CN1C(=O)c2cccc([N+](=O)[O-])c2C1=O
[22] CCc1ccc(-n2c(SCC(=O)Nc3ccc(Br)cc3Cl)nnc2-c2ccncc2)cc1
[23] O=C(COc1ccc2ccccc2c1Br)NCc1ccccn1
[24] COc1cc(NC(=O)c2sc3ccccc3c2Cl)ccc1NC(=O)c1cc2ccccc2o1
screen / no.	19	20	21	22	23	24
motility	18.4%	9.7%	-15.5%	6.7%	8.6%	15.5%
motility viability	1.9	7.6	-9.1	-8.1	5.6	-0.6

Entries listed so far that contain bromine (5):
[7] O=C(CN1CCCCC1)Nc1ccc([N+](=O)[O-])cc1Br
[8] O=C(c1ccc(NC(=S)Nc2ccc(Br)cc2Cl)cc1)N1CCCC1
[17] O=Cc1ccc(-c2ccc(Br)cc2)o1
[22] CCc1ccc(-n2c(SCC(=O)Nc3ccc(Br)cc3Cl)nnc2-c2ccncc2)cc1
[23] O=C(COc1ccc2ccccc2c1Br)NCc1ccccn1
screen / no.	7	8	17	22	23
motility	4.8%	12.5%	11.3%	6.7%	8.6%
motility viability	1.0	-2.5	2.9	-8.1	5.6

The list continues.
[25] CC(=Nc1ccn(Cc2ccccc2)n1)c1c(C)[nH]n(-c2ccc([N+](=O)[O-])cc2)c1=O
[26] CCOC(=O)C(N)CSC1CC(=O)N(CCc2ccccc2)C1=O (centres undefined)
[27] COC(=O)CN1C(=O)CN(c2nc(C)cc(C)n2)C1=O
[28] N/C(=N\OC(=O)c1cc(-c2ccccc2)nc2ccccc12)c1ccccn1
[29] CC12CCC(C(=O)NCCCn3ccnc3)(OC1=O)C2(C)C (centres undefined)
[30] COC(=O)c1c(N2C(=O)C3C4CCC(O4)C3C2=O)sc2c1CCCCCC2 (centres undefined)
screen / no.	25	26	27	28	29	30
motility	4.5%	-3.5%	1.3%	1.9%	-5.9%	17.5%
motility viability	-1.1	-8.6	-2.1	-4.1	-2.0	1.0

[31] Cc1ccc(SCCNC(=O)C(CO)(CO)CO)cc1
[32] NC1=NC(=Nc2ccc3c(c2)OCCO3)c2ccccc21
[33] COC(=O)c1ccc(CNC(=O)C(=O)Nc2ccc(F)cc2)cc1
[34] CS(=O)(=O)NCCSCc1c(F)cccc1Cl
[35] CC(CC(=O)O)CC(=O)NCCN1CCCCC1 (centres undefined)
[36] COc1ccc(C(=S)N2CCCCC2)cc1Br
screen / no.	31	32	33	34	35	36
motility	-11.4%	-1.0%	4.5%	4.7%	-2.3%	11.8%
motility viability	-6.2	-3.7	-2.2	-0.9	-3.6	8.0

[37] CCOC(=O)c1c(C)n(C)c2ccc(O)c(CN3CCC(C)CC3)c12
[38] COc1cc(S(=O)(=O)NC2CCCCC2C)c(OC)cc1Cl (centres undefined)
[39] CC(CNC(=O)c1cccs1)c1ccc([N+](=O)[O-])cc1 (centres undefined)
[40] O=C(NC(=S)N1CCOCC1)c1ccccc1Br
[41] CCNc1nnc(-c2ccccc2OC)s1
[42] Cn1c(SCc2ccc(Cl)c(Cl)c2)nnc1-c1ccco1
screen / no.	37	38	39	40	41	42
motility	7.3%	-4.5%	11.0%	22.0%	8.8%	0.9%
motility viability	1.9	-8.4	0.3	-0.3	2.5	-6.9

[43] Cc1nc(NC(=O)COc2ccccc2[N+](=O)[O-])ccc1Br
[44] COc1ccc(-c2noc(CCc3ccccc3)n2)cc1OC
[45] O=C(O)c1[nH]nc2c1COc1ccccc1-2
[46] O=S(=O)(c1ccc(I)cc1)N1CCC(Cc2ccccc2)CC1
[47] CSc1nc(C)cc(SC(C(C)=O)C(=O)Nc2ccccc2)n1 (centres undefined)
[48] CCN1C(N)=C(C#N)C(c2ccc3[nH]c4ccccc4c3c2)c2nc(C)oc21 (centres undefined)
screen / no.	43	44	45	46	47	48
motility	-5.3%	3.9%	-13.1%	6.0%	23.2%	-6.5%
motility viability	-8.7	2.7	-6.0	-4.2	0.2	19.2

[49] COC(=O)c1ccc(C(=S)N2CCN(Cc3ccccc3)CC2)cc1
[50] COC(=O)C1=C(C)c2oc(N)nc2C1c1ccccc1 (centres undefined)
[51] Nc1ccccc1-c1nc2ccccc2[nH]1
[52] OCCNc1nc2ccc(Cl)cc2[nH]1
[53] Cc1ccc(C)n1NC(=O)c1ccco1
[54] CCc1ccc(NC2=NC(C(=O)c3ccccc3)CC(=O)N2)cc1 (centres undefined)
screen / no.	49	50	51	52	53	54
motility	5.4%	0.7%	30.6%	-6.6%	-11.6%	20.9%
motility viability	-1.8	1.2	1.5	0.6	3.6	5.3

[55] CCOC(=O)C1CCN(C(=O)CCS(=O)(=O)Cc2ccccc2)CC1
[56] O=C1C2C(C(=O)N1Cc1ccccc1)C2(c1ccccc1)c1ccccc1 (centres undefined)
[57] Nc1cc(C(=O)N2CCCC2)cc(C(=O)N2CCCC2)c1
[58] Cc1c(C(=O)NC2=NCCS2)oc2ccccc12
[59] O=C(O)C1CCN(C(=O)Cc2ccccc2)CC1
[60] CC(NC(=O)c1ccccc1Br)c1ccc2c(c1)CCCC2 (centres undefined)
screen / no.	55	56	57	58	59	60
motility	-0.5%	-10.5%	5.3%	-6.2%	2.4%	23.7%
motility viability	1.2	-1.9	26.3	-5.9	-7.7	11.8

[61] CCOC(=O)c1ccc(NC(=S)N2CCN(Cc3ccc(Cl)c(Cl)c3)CC2)cc1
[62] O=C(CCc1ccccc1)NC(=S)NCc1ccc2c(c1)OCO2
[63] CC(=O)NC(C)c1nc2ccccc2n1C (centres undefined)
[64] COc1ccc(C(=O)NC(=S)N2CCN(C/C=C/c3ccccc3)CC2)cc1OC
[65] O=c1[nH]c(N2CCOCC2)nc2c1CCCC2
[66] Cn1c(NC(=O)c2cccc(Cn3cc(Cl)cn3)c2)nc2ccccc21
screen / no.	61	62	63	64	65	66
motility	6.1%	-21.2%	-0.9%	120.5%	-3.5%	5.3%
motility viability	-0.5	-6.4	-4.5	36.6	1.6	-1.9

[67] COc1cccc(Cn2cc(NC(=O)c3csc4ccccc34)cn2)c1
[68] O=C(NCc1ccc2c(c1)OCO2)C(=S)NCc1ccccc1
[69] CC1CCCCN1C1(O)C(=O)Nc2ccc([N+](=O)[O-])cc21 (centres undefined)
[70] COCC(C)NC(=O)NC(=O)c1ccc(Cl)cc1 (centres undefined)
[71] N/C(=N\c1nc(C(F)(F)F)cc(C(F)(F)F)n1)Nc1ccc([N+](=O)[O-])cc1
[72] O=C(c1cccs1)N1CCN(c2nnnn2-c2ccccc2)CC1
screen / no.	67	68	69	70	71	72
motility	-14.8%	22.2%	-16.1%	-28.4%	u	13.3%
motility viability	2.1	-8.6	-4.6	-15.4	x	2.4

[73] Cc1cc(C(F)(F)F)c2c(n1)sc1c(O)c(Br)c(=O)[nH]c12
[74] Cc1c(C(=O)NCc2ccccc2F)oc2ccccc12
[75] COC(=O)c1cc(NC(=O)c2ccc(CN3CCc4ccccc4C3)cc2)ccc1Cl
[76] Cc1n[nH]c(C)c1CCCOc1c(C(C)C)cccc1C(C)C
[77] COC(=O)Nc1ccc(OC)cc1OC
[78] N/C(=N\OC(=O)c1cccs1)c1ccncc1
screen / no.	73	74	75	76	77	78
motility	4.9%	10.8%	5.8%	2.1%	-3.3%	23.4%
motility viability	-1.5	5.3	-1.6	30.1	-6.9	3.1

[79] O=C1OCCC1Sc1nc(-c2ccccc2)cs1 (centres undefined)
[80] CCn1c(SCC(=O)Nc2cc3oc4ccccc4c3cc2OC)nnc1-c1cccs1
[81] Cc1ccc(S(=O)(=O)N(CCO)C2CC(C)(C)N(O)C(C)(C)C2)cc1
[82] Cc1nnc(Sc2nc3ccccc3o2)c2ccccc12
[83] COc1ccc(C(=O)n2nnc3ccccc32)cc1I
[84] Brc1ccc(NCc2ccncc2)cc1
screen / no.	79	80	81	82	83	84
motility	-2.0%	-18.1%	2.7%	12.8%	-1.7%	13.2%
motility viability	-1.0	-7.1	8.7	-4.1	2.1	-3.6

[85] Cn1c(Sc2cnn(-c3ccccc3)c(=O)c2Br)nnc1-c1ccccc1
[86] CCOc1ccccc1NC(=O)c1cc(I)ccc1NC(=O)c1ccccc1Cl
[87] O=C(NC1=NCCS1)c1cccc2c(Br)cccc12
[88] O=C(O)C(Cc1ccccc1)N=C(NS(=O)(=O)c1ccc(Cl)cc1)c1ccccc1 (centres undefined)
[89] Cc1cc(C)n(CC(O)Cn2ccc3ccccc32)n1 (centres undefined)
[90] C=CCC(C(=O)c1ccccc1)N1CCCCC1 (centres undefined)
screen / no.	85	86	87	88	89	90
motility	-4.8%	-3.8%	-2.5%	-3.2%	36.8%	13.7%
motility viability	-3.2	-4.5	-4.2	-4.2	6.4	-4.4

[91] COc1nnc(-c2ccc(N3CCOCC3)c(NS(=O)(=O)c3ccc(Cl)cc3)c2)c2ccccc12
[92] COc1ccc(OC)c(C(=O)c2ccc(C(=O)Nc3ccc(N(C)C)cc3)cc2)c1
[93] Cc1cc(C)cc(OCC(=O)NNC(=O)CCC(=O)Nc2ccc(C)cc2C)c1
[94] CC(=O)C(=O)c1ccc(Br)cc1
[95] CC(C)n1cc(/C=C(\C#N)S(=O)(=O)c2ccccc2)c2ccccc21
[96] Nc1nc(-c2ccc(Cl)cc2)nn1C(=O)c1ccccc1Cl
screen / no.	91	92	93	94	95	96
motility	23.7%	7.0%	2.7%	-1.8%	-8.3%	-11.2%
motility viability	13.8	0.8	0.1	-1.9	-7.2	-4.2

[97] CC(CO)(CO)NC(=O)C(=O)Nc1ccccc1
[98] Cc1cc2c(cc1C)NC(CC(=O)Nc1cc(Cl)cc(Cl)c1)C(=O)N2 (centres undefined)
[99] CC(C)(C)c1csc(NC(=O)CSc2ccc(Cl)cc2)n1
[100] CC1CCCCN1C1CCN(CCc2ccccc2)CC1 (centres undefined)
[101] O=C(Cn1c(=S)nc2ccccn21)N1CCc2ccccc2C1
[102] O=C(Nc1cc(F)c(F)cc1Cl)Nc1cccc(Cl)c1Cl
screen / no.	97	98	99	100	101	102
motility	-1.8%	6.0%	7.5%	5.5%	-1.0%	4.7%
motility viability	0.3	-2.7	21.9	28.0	-6.9	-4.8

[103] O=C(NC1CCCCC1)c1ccc(S(=O)(=O)c2ccccc2)cc1
[104] Cc1nn(C)c(C)c1NC(=S)Nc1ccc(F)c(Cl)c1
[105] COC(=O)c1cc(-c2ccccc2)sc1NC(=S)NNC(=O)c1ccccn1
[106] COc1ccc(C(=O)NC(=S)Nc2c(Cl)cc(Cl)cc2C(=O)O)cc1[N+](=O)[O-]
[107] CCC(=O)Nc1ccc(N2CCN(Cc3ccccc3Cl)CC2)c(Cl)c1
[108] CCc1cccc(NC(=O)Nc2ccc(Cl)cc2)c1
[109] COc1ccc(Br)cc1C(=O)NC(=S)Nc1nnn(C)n1
[110] CCCCOc1ccc(NC(=O)CCSc2nccn2C)cc1
screen / no.	103	104	105	106	107	108	109	110
motility	6.4%	-0.1%	-14.3%	15.9%	10.5%	1.3%	14.0%	5.3%
motility viability	19.3	-4.3	-10.4	13.0	4.3	2.2	-3.0	-2.4

Screening data: PubChem BioAssay, Southern Research Institute
